TRPML1 inh = blocks the human TRPML1 channel. TRPML1-inducible cells, Ca2+ dye fluorescence, FDSS; stronger effect = lower value; inhibition of EC80 agonist-evoked calcium signal. 0.02% of 390,000 active. activity change, negative = inhibition, % (concentration not given with the values); in the data active means activity change below about -50%; inconclusive means about -30% to -50%; inactive means above about -30%;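 further: stimulus is agonist 54-4 at its EC80 concentration; on the % scale 0 is the no-effect control and ±100 the full control effect; compound concentration not given in the record; the text of the record puts the active cut at -80%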
Target sequence (Q9GZU1 whole entry, looked up): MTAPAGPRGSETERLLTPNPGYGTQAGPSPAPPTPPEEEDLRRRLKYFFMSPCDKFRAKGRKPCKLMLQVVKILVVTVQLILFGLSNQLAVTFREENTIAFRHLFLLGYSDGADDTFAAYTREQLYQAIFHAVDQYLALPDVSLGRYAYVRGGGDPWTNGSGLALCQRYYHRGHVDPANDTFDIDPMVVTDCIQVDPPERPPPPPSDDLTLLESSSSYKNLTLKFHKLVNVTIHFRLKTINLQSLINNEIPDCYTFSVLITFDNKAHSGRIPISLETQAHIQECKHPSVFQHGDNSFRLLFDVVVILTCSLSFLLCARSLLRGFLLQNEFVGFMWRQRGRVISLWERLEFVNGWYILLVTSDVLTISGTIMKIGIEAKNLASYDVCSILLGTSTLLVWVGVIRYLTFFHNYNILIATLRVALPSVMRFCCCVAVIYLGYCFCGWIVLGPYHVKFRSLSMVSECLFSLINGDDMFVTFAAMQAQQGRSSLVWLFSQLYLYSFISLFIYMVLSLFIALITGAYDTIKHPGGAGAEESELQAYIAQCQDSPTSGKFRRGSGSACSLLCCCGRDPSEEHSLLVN
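Tet-induced TRPML1-DL cells loaded with Ca8 no-wash calcium dye were read kinetically on FDSS. Compound addition was followed by EC80 agonist 54-4 (4 uM final); inhibition was read over 110 s.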
PINK1 expr mod = PINK1 expression modulation; 0.2% of 410,000 active; AID 624263; PINK1 immunofluorescence, high-content cytometry, 24 h; Potency, µM (titrated, usually from 76.6 µM), for inactives: at the top dose activation (PINK1 increase), actives largely listed as activators; active = well fitted activation curve with a large enough effect; inconclusive = small, poorly fitted or top-dose-only effect; inactive = flat fitted curve, though single readings scatter; cell line not stated here;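 further: potency means the concentration at half of the fitted maximal effect; % of control where 0% means no effect; nearly all actives have a fitted effect of over 65% in size; a mitochondrial uncoupler was the plate control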
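PINK1 protein level read as immunofluorescence by microplate cytometer in a fixed, stained stable cell line after 24 h exposure to five compound concentrations, with CCCP as control.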
CtBP-E1A inh = CtBP/E1A binding inhibition. activity change, % (no concentration beside the values). AID 651724. 0.49% of 340,000 active. AlphaScreen GST-E1A/His-CtBP binding, 1536-well; stronger effect = lower value; control for the full effect not named in the record; in the data active means activity change below about -65%; inconclusive means about -30% to -65%; inactive means above about -30%; further: on the % scale 0 is the no-effect control and ±100 the full control effect; compound concentration not given in the record
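Homogeneous bead-based format: GST-tagged E1A captured on glutathione donor beads, His-tagged CtBP on nickel acceptor beads; compounds precede bead addition by 2 h at 37 °C.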
D2 ag = agonists of human D2 dopamine receptor (beta-arrestin); P14416; DiscoveRx PathHunter D2 beta-arrestin, luminescence, 90 min; 100% = 57 uM dopamine signal; activation, % (test concentration not listed); 0.084% of 360,000 active; AID 624465; in the data active = activation above about 40%; inconclusive = about 15% to 40%; inactive = below about 15%; further: compound concentration not given in the record; the text of the record calls up to 30% inactive
Target sequence (P14416 whole entry, looked up): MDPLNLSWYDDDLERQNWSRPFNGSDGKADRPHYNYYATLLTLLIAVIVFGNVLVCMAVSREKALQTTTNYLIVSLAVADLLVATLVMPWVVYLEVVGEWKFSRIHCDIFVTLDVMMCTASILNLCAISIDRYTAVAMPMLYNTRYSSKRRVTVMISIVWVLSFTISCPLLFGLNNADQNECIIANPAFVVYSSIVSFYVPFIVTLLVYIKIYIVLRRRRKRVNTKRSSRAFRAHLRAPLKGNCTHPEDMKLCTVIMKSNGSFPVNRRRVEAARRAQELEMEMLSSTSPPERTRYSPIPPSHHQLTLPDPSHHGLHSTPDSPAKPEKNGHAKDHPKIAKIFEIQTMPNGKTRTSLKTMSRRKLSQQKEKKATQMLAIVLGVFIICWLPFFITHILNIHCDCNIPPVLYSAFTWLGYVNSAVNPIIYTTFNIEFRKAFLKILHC
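Agonist mode: compounds alone added to overnight-plated D2 PathHunter cells for 90 min at 37 C, with 57 uM final dopamine (EC100) defining full response. Beta-arrestin recruitment detected by chemiluminescent reagent, read after 1 h at ambient temperature.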
Six1-Eya2 inh = inhibitors of human Six1/Eya2 interaction. AlphaScreen GST-Six1/His-Eya2 binding, biochemical; stronger effect = lower value; control for the full effect not named in the record. activity change, % (no concentration beside the values). 0.56% of 360,000 active. AID 651725; in the data active = activity change below about -65%; inconclusive = about -30% to -65%; inactive = above about -30%; further: on the % scale 0 is the no-effect control and ±100 the full control effect; compound concentration not given in the record
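Six1/Eya2 binding was read as AlphaScreen signal after compounds were pinned into GST-Six1 plus His-tagged Eya2 (5X stock 250/500 nM) in pH 8.0 Tris/NaCl/TCEP buffer, beads added, then incubated 1 h, 37 C, dark.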
TRPML1 agonist = human mucolipin-1 channel agonism. Q9GZU1. TRPML1-expressing cells, Ca2+ dye fluorescence, FDSS; host cell line not named in the record; reference of the full effect not given here. activation, % (test concentration not listed). 0.12% of 410,000 active; in the data active = activation above about 50%; inconclusive = about 30% to 50%; inactive = below about 30%; further: 0% is about no effect; the text of the record puts the active cut at 80%
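Tetracycline-induced TRPML1-DL cells are seeded and incubated overnight before loading with a no-wash Ca2+ dye and quencher. Agonist activity is taken from the 110 s fluorescence read following compound pin-transfer on an FDSS, before EC80 54-4 challenge.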
The depositor's hits bear a star; ? = inconclusive; . = no result given; [ ] = dose if it differs, or a comment.

SMILES	TRPML1 inh	PINK1 expr mod	CtBP-E1A inh	D2 ag	Six1-Eya2 inh	TRPML1 agonist
O=C(COC(=O)CNC(=O)c1ccc(Cl)cc1Cl)NC1CC1	3	-1.8%	-5	-2.2	13	0.1
CN(C)c1ccc(C(=O)OCC(=O)NCCCc2ccccc2)cc1	-9	-3.4%	-1	-4.5	-1	1.1
O=C(Nc1c(-c2ccc(Cl)cc2)[nH][nH]c1=O)c1ccc(Br)cc1	.	-0.4%	1	-7.0	-6	-0.6
C=CCn1c(N)cc(=O)nc1SCC(=O)Nc1cccc2ccccc12	0	1.3%	7	-3.0	-6	-1.0
Cc1ccc(NC(=O)C(OC(=O)c2ccc(F)cc2)c2ccccc2)cc1Cl (centres undefined)	6	8.4%	0	-1.6	14	1.0
COc1nc(Nc2cccc(C(F)(F)F)c2)nc(OC)n1	-10	-4.9%	-3	-4.2	-1	1.6
COc1ccc(S(=O)(=O)N2CCC(C(=O)Nc3ccc(F)cc3)CC2)c2cccnc12	5	0.9%	-3	0.1	-7	-0.3
CCOC(=O)c1c(S(=O)(=O)N2CCN(c3ccc(F)cc3)CC2)c(C)n(C)c1C	6	0.2%	-8	-4.7	-9	-0.3
Cc1ccc(C)n1-c1nnc(N2CCCC(C(=O)Nc3ccccc3Br)C2)s1 (centres undefined)	-1	3.5%	.	.	.	1.7
CCCCc1cc(O)c(CCCC)c(O)c1	-19	-0.8%	-1	0.9	-6	?
C=CC[C@H](CC(=O)NCCO)C(=O)N[C@@H](COC(=O)[C@@H](CC=C)CC(=O)OC(C)(C)C)Cc1c[nH]c2ccccc12	0	3.7%	3	-9.5	-9	-0.6
COc1ccc(-n2nc(C(=O)NCC(=O)NCCCN3CCN(C)CC3)c3ccccc3c2=O)cc1OC	11	2.7%	-12	-2.5	0	0.0
Cc1cccc(NC(=O)c2nc[nH]c2C(=O)NCC(=O)OCc2ccccc2)c1	23	2.6%	.	?	11	2.4
CCN(Cc1ccccc1)Cc1c(O)ccc2c(=O)c(-c3ccccc3Cl)c(C(F)(F)F)oc12	29	7.3%	.	.	.	1.4
CS(=O)(=O)N1CCN(c2ncnc3c2cnn3-c2ccccc2)CC1	2	1.1%	-5	-3.2	-3	0.0
CN(Cc1ccccc1)S(=O)(=O)c1ccc2[nH]cc(C(=O)NCC3CCCO3)c(=O)c2c1 (centres undefined)	-7	2.4%[38.3 µM]	37	3.3	13	1.0
O=C(CC(CC(=O)c1ccc(Br)cc1)c1cccnc1)c1ccc(Br)cc1	-10	1.7%	2	-4.6	-9	-0.3
COc1ccc(OC)c(-c2cc(C(=O)Nc3c(C)nn(Cc4ccccc4Cl)c3C)no2)c1	5	4.0%[38.3 µM]	-7	5.1	-11	1.6
COc1ccc(Cl)cc1S(=O)(=O)n1ccnc1C(C)C	-7	0.0%	7	1.1	1	-0.2
Cc1cc(C)cc(Nc2nnc(-n3nc(C)cc3C)c3ccccc23)c1	-12	-0.9%	.	.	.	1.1

Part of the list above, in markdown.
| SMILES | TRPML1 inh | PINK1 expr mod | CtBP-E1A inh | D2 ag | Six1-Eya2 inh | TRPML1 agonist |
| --- | --- | --- | --- | --- | --- | --- |
| Cc1ccc(NC(=O)C(OC(=O)c2ccc(F)cc2)c2ccccc2)cc1Cl (centres undefined) | 6 | 8.4% | 0 | -1.6 | 14 | 1.0 |
| COc1nc(Nc2cccc(C(F)(F)F)c2)nc(OC)n1 | -10 | -4.9% | -3 | -4.2 | -1 | 1.6 |

The listing continues.
SMILES	TRPML1 inh	PINK1 expr mod	CtBP-E1A inh	D2 ag	Six1-Eya2 inh	TRPML1 agonist
Cc1cccc(CC(C)NC(=O)c2cc(COc3ccc(C)c(C)c3)on2)n1 (centres undefined)	-6	0.7%	14	-2.0	-5	2.1
COc1ccc(CC(=O)NC(C)c2nnc(SCc3nc4ccccc4c(=O)[nH]3)n2C)cc1 (centres undefined)	-2	1.4%	6	-1.9	-7	-0.9
CCOC(=O)c1c(-c2ccc(C)cc2)csc1NC(=O)CCN1CC(C)OC(C)C1 (centres undefined)	36	16%	-7	-4.1	-3	3.4
c1ccc(CC2CNc3ccccc3CN2)cc1 (centres undefined)	10	-1.0%	-2	-2.3	-2	-0.4
CCOC(=O)Cc1nn(C(C)C)c(=O)c2ccccc12	-1	0.5%	-9	-2.6	0	0.0
O=C(N/N=C/c1c(Cl)[nH]c2ccccc12)c1ccc2c(c1)OCCO2	1	0.0%	-18	-3.1	-6	1.4
S=C(Nc1ccccc1)Nc1ccc(Br)cn1	-2	3.6%	-6	-5.1	5	1.6
CN(C)S(=O)(=O)c1cccc(NC(=O)c2ccc(COc3ccccc3)cc2)c1	-14	-0.6%	0	-1.0	-5	0.3
O=C(Nc1nccs1)c1ccccn1	12	-0.7%	?	0.2	-87*	1.2
COc1ccc(CC(=O)Nc2cccc(C(=O)Nc3ccccc3C(=O)O)c2)cc1OC	2	0.5%	-19	3.8	?	2.0
CN(C)CCNc1nc(-c2ccccc2F)c2sccc2n1	9	1.0%	-2	-6.8	0	0.0
COc1ccc(-c2cc(C(=O)OC(C)C(=O)c3ccccc3)c3cccc(Cl)c3n2)cc1 (centres undefined)	-5	3.7%	.	.	.	-0.8
CCOc1ccc(NC(=O)c2cc(S(=O)(=O)N3CCc4ccccc43)ccc2F)cc1	11	0.3%	.	.	.	2.4
Cc1ccc(-n2nc(CO)c(C(=O)NCc3ccccn3)n2)cc1C	-12	-0.8%	.	.	.	1.1
CC(=O)/C=C(\C)Nc1ccccc1O	-8	1.2%	.	?	-3	-0.1
Cc1ccc(NC(=O)c2c(C)noc2-c2snnc2C)cc1	-8	9.9%	3	-1.9	1	-0.6
O=C(OCc1nnc(-c2ccc([N+](=O)[O-])cc2)o1)C1CCN(C(=O)c2ccc(Cl)cc2)CC1	-7	-0.8%	-12	5.7	-4	1.7
O=C(NCC1CCCN1S(=O)(=O)c1ccccc1)c1cccc(Cl)c1 (centres undefined)	0	5.6%	-16	-3.5	0	1.1
Cc1ccc(C(=O)NNC(=O)CSc2n[nH]c(-c3cccnc3)n2)cc1	-7	-0.4%	4	0.0	-4	3.7
CCN(CCn1cccn1)C(=O)c1ccc(OC2CCN(C(=O)COC)CC2)cc1	-4	-2.5%	5	-6.8	-2	-0.4
COCCN1C(=O)N[C@@H](c2ccccc2)[C@H](C(=O)OC)[C@H]1C	-4	1.0%	6	7.6	0	-0.3
Cc1ccc2nc3c(cc(C#N)c(=O)n3-c3nnc(SCc4ccccc4)s3)c(=O)n2c1	4	-0.1%	.	.	.	2.8
Cc1ccc(C(=O)N/N=C(\CC(C)C)c2ccccc2)cc1	3	7.4%	1	-6.6	7	-0.1
Cc1cc(C(=O)N/N=C/c2ccccn2)n[nH]1	18	2.1%	.	-4.5	-8	1.0
O=C(Nc1cccnc1)C1CCN(S(=O)(=O)c2cccc3nonc23)CC1	1	.	-23	0.0	-9	-0.3
COc1ccc(-c2nc3c(c(SCC(=O)N4CCOCC4)n2)Cc2c(CO)cnc(C)c2O3)cc1	-1	9.1%	-20	3.6	-18	0.0
CS(=O)(=O)N1N=C(c2cccs2)CC1c1ccc(Cl)o1 (centres undefined)	-10	0.9%	.	0.9	1	0.8
O=C(Nc1ncc2c(n1)-c1ccccc1CC2)c1cccc(Cl)c1	31	1.9%	1	-1.1	4	2.0
CCCCOc1ccc(C(=O)O)cc1	2	-0.4%	2	0.8	-2	-0.1
O=C(CNCC1CCCO1)Nc1ccc([N+](=O)[O-])cc1C(=O)Nc1ccccc1F (centres undefined)	.	-0.6%	1	-2.5	1	.
COC(=O)c1ccc(CS(=O)(=O)c2ccc(C)cc2)cc1	-17	3.6%	10	-1.9	1	0.4
Cc1cc(C(=O)CN2C(=O)C(=O)N(C)C2=O)c(C)n1-c1cccc(S(=O)(=O)N2CCOCC2)c1	-6	0.6%	-3	3.5	3	0.4
CC(=O)Oc1ccccc1Cn1c(C)c(C(=O)NCc2cccc([N+](=O)[O-])c2)sc1=O	.	-1.2%	-29	4.2	?	-0.8
CC(C)CCNC(=O)NC(=O)CSc1nnc2ccccn12	7	.	-3	-1.8	0	0.1
CC(=O)NC1C(OCCOc2ccc(Cl)cc2Cl)OC(COC(C)=O)C(OC(C)=O)C1OC(C)=O (centres undefined)	-5	1.0%	0	0.5	7	0.3
CCc1ccc(C2CC(=O)NC(SCC(=O)OC(C)C)=C2C#N)cc1 (centres undefined)	58	3.9%	-1	-4.4	-6	0.7
COc1cc2nc(SCc3ccc(C)cc3)n3nc(CCn4nc(C)cc4C)nc3c2cc1OC	19	1.4%	.	.	.	-0.3

Compounds listed so far containing an aryl methoxy group, in the order listed:
SMILES	TRPML1 inh	PINK1 expr mod	CtBP-E1A inh	D2 ag	Six1-Eya2 inh	TRPML1 agonist
COc1nc(Nc2cccc(C(F)(F)F)c2)nc(OC)n1	-10	-4.9%	-3	-4.2	-1	1.6
COc1ccc(S(=O)(=O)N2CCC(C(=O)Nc3ccc(F)cc3)CC2)c2cccnc12	5	0.9%	-3	0.1	-7	-0.3
COc1ccc(-n2nc(C(=O)NCC(=O)NCCCN3CCN(C)CC3)c3ccccc3c2=O)cc1OC	11	2.7%	-12	-2.5	0	0.0
COc1ccc(OC)c(-c2cc(C(=O)Nc3c(C)nn(Cc4ccccc4Cl)c3C)no2)c1	5	4.0%[38.3 µM]	-7	5.1	-11	1.6
COc1ccc(Cl)cc1S(=O)(=O)n1ccnc1C(C)C	-7	0.0%	7	1.1	1	-0.2
COc1ccc(CC(=O)NC(C)c2nnc(SCc3nc4ccccc4c(=O)[nH]3)n2C)cc1 (centres undefined)	-2	1.4%	6	-1.9	-7	-0.9
COc1ccc(CC(=O)Nc2cccc(C(=O)Nc3ccccc3C(=O)O)c2)cc1OC	2	0.5%	-19	3.8	?	2.0
COc1ccc(-c2cc(C(=O)OC(C)C(=O)c3ccccc3)c3cccc(Cl)c3n2)cc1 (centres undefined)	-5	3.7%	.	.	.	-0.8
COc1ccc(-c2nc3c(c(SCC(=O)N4CCOCC4)n2)Cc2c(CO)cnc(C)c2O3)cc1	-1	9.1%	-20	3.6	-18	0.0
COc1cc2nc(SCc3ccc(C)cc3)n3nc(CCn4nc(C)cc4C)nc3c2cc1OC	19	1.4%	.	.	.	-0.3

From PubChem
